PrP UTR inh: inhibition of PrP 5' UTR reporter expression; inhibition, % (concentration not given with the values); cell-based PrP 5' UTR mRNA reporter, plate reader; 0.35% of 340,000 active;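 active = every replicate at 50% or more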;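 also: 0 = median of the neutral control wells; tested in H4 reporter cells; numbers are from one replicate; inactives centre near -14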
BJeLR lethal: MLPCN primary cell-based screen for lethality selective to Ras in HRASV12 cells; BJeLR (HRASV12) viability, CellTiter-Glo ATP luminescence, 48 h; reference of the scale not given here; inhibition, % (concentration not given with the values); 0.17% of 300,000 active; AID 1554, 2009;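 active = replicate mean above 50%; inconclusive = above 50% but judged a plate artefact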;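 also: 50 nL library stock added to about 25 µL; numbers are from one replicate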
Mtb hypoxia inh: PubChem AID 1159583 | fluorescence inhibition, % (no concentration beside the values) | M. tuberculosis hypoxia-regulated fluorescent reporter, fluorescence | 0.1% of 300,000 active;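 active = 35 to 45% if threefold the growth effect, above 45% if 1.5-fold the growth effect; inactive = the rest, general growth blockers included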;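 also: wells of about 50 µL received 100 nL stock; 0% = vehicle wells and 100% = reference inhibitor wells; whole bacteria with a GFP reporter of the hypoxia response; strong numbers were not always called active; many hits fall short of the cut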
Bead autofluor: counter-screen for toxin protease inhibitors: compound fluorescence. compound autofluorescence counterscreen, microsphere flow cytometry; hits give high values. fluorescence intensity (no concentration beside the values). 3.1% of 360,000 active. AID 624483;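 active = at least 3 SD above the mean of all compounds, about 16000 in these data; inconclusive = too few beads counted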;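 also: 100 nL of 1 mM stock went into each well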
Sa RN4220 lethal: growth inhibition of S. aureus RN4220, primary screen, OD600; 0.33% of 330,000 active; inhibition, % (concentration not given with the values); 16 h;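 active = z-score of -3 or lower and OD600 up to 0.18 on both plates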;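 also: plate controls were untreated cells for no effect and reference antibiotic for full effect; stock transfer was 100 nL into about 80 µL; one replicate is shown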
Sa ugtP lethal: growth inhibition of ugtP-null S. aureus, primary screen, RN4220 ugtP deletion, OD600; 16 h; some inactives read as strong as hits; 0.54% of 330,000 active; growth inhibition, % (no concentration beside the values); AID 1259309, 2017;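 active = z-score under -3 and OD600 up to 0.15 on both plates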;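 also: plate controls were untreated wells for no effect and antibiotic for full effect; wells of about 80 µL received 100 nL stock; the first replicate is given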
Mtb hypoxia inh growth: recorded beside Mtb hypoxia inh, whose call it bears; growth inhibition, %; measured here: M. tuberculosis growth (absorbance);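 0% = vehicle and 100% = reference antibiotic; read after six days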
Starred values were filed as active, the others as inactive; ? = inconclusive; . = no result given.

structure	Bead autofluor	Sa RN4220 lethal	PrP UTR inh	Mtb hypoxia inh growth	Mtb hypoxia inh	Sa ugtP lethal	BJeLR lethal
COc1ccc(CNC(=O)C2CC=CC3CCN(C4CC4)C(=O)C32)cc1 (centres undefined)	.	4.9	.	21	19	2	.
CN(C)N=Cc1cc([N+](=O)[O-])ccc1O	.	71	.	3	1	55	.
S=C(NN=Cc1ccc(Cl)c(Cl)c1)Nc1ccccc1Cl	.	67	.	10	-4	-4	.
O=c1oc2c(O)cccc2cc1-c1nc2ccccc2[nH]1	4125	0.5	-12	-4	-3	2	22
COc1ccc(CN2CN(C(C)C)CSC2=S)cc1	24524*	8.5	-23	12	9	28	6
Cc1cc(C)c(S(=O)(=O)N2CCCC(C(=O)NCc3ccncc3)C2)c(C)c1 (centres undefined)	6458	-0.9	-20	6	16	6	-10
CN1CC=C2C(C#N)=C(N)C(C#N)(C#N)[C@H](c3cccc(Cl)c3)C2C1 (some centres undefined)	5238	-1.0	-25	.	.	4	4
COc1ccc(C(=O)OCC(=O)Nc2ccc(Cl)cn2)cc1	3778	0.5	8	3	14	5	-3
O=C(N/N=C/C1CC=CCC1)c1cc2ccccc2cc1O (centres undefined)	2462	.	-20	.	.	.	6
CSCCC(C(=O)NC1=NCCS1)N1C(=O)c2ccccc2C1=O (centres undefined)	4323	2.5	-11	.	.	9	6
COc1ccc(S(=O)(=O)N2CCN(C(=O)c3cc(-c4ccc(C)cc4)n[nH]3)CC2)cc1	6104	0.0	12	.	.	9	-3
COc1ccc(C(CNC(=O)c2ccc(C)o2)N2CCOCC2)cc1 (centres undefined)	6095	3.2	-6	-2	4	7	7
CN(C)c1ccc(C(=O)c2ccc(N(C)C)cc2)cc1	10780	5.4	2	10	15	2	25
Cc1nc2c(C)cccc2cc1C(=O)N/N=C/c1ccc(N(C)C)cc1	11276	.	-11	.	.	.	-10
Cc1cccc(C)c1NS(=O)(=O)c1ccc(-c2ccc(=O)[nH]n2)o1	4758	4.3	-24	1	9	5	4
COC(=O)c1ccc(/C=N\N2CCN(c3ccccc3)CC2)cc1	3870	.	-28	.	.	.	7
CC(C)C(=O)N1CCC(Cc2ccccc2)CC1	.	4.0	-19	5	21	4	-6
COc1ccc(NC(=O)CCNC(=O)C2CCN(S(=O)(=O)c3ccc(OC)cc3)CC2)cc1	5560	6.7	-10	2	8	-1	5
Cc1[nH]c(=O)[nH]c(=O)c1N1CCOCC1	?	1.3	.	2	11	1	6
COC(=O)C1CCN(C(=O)Nc2ccccc2)CC1	2065	2.2	-11	0	14	0	-3
CCOC(=O)c1sc(=S)n(-c2ccccc2)c1NC(C)=O	.	1.5	-16	11	10	4	11
COc1ccc(C2CC(=O)c3c([nH]c(C(=O)OC(C)C)c3C)C2)cc1OC (centres undefined)	8826	.	-25	.	.	.	0
O=C(Nc1ccccc1N1CCN(C(=O)c2ccc(Cl)cc2)CC1)c1cccc(F)c1	.	0.7	-4	3	5	-7	2
COc1ccc(-c2noc(-c3ccccc3C(=O)Nc3cccc(OC)c3)n2)cc1	4574	-6.7	-18	.	.	-15	-16
COC(=O)c1ccc(NC(=O)c2ccc3nsnc3c2)cc1	4365	5.8	-10	-6	12	2	6
COCCCN(C(=O)c1ccco1)c1nc(-c2ccc(OC)cc2)cs1	4126	-4.1	-20	10	-2	29	1
Cc1ccc(/C=N/NC(=O)CSc2nc3ccccc3s2)o1	2859	.	-48	.	.	.	-30
CCOc1ccccc1NC(=O)Cn1c(=O)oc2cc(Cl)ccc21	3628	7.8	-13	-4	9	3	-3
O=C(Nc1cccc(F)c1)Nc1cccc(Cl)c1	4497	35	-44	0	-1	23	-5
CC(NS(=O)(=O)c1ccc2c(c1)OCCO2)c1ccccc1 (centres undefined)	2536	0.5	-22	1	-2	-6	-5
COC(=O)c1cc(C(=O)NCc2ccc3c(c2)OCO3)cc([N+](=O)[O-])c1	4341	1.7	-22	10	-7	0	-2
Cc1cc(C)cc(NC(=O)COC(=O)CCc2ccc(S(=O)(=O)N3CCOCC3)cc2)c1	4418	2.6	-37	2	-3	5	1
CC1(C)CC(NS(=O)(=O)c2ccc(S(N)(=O)=O)cc2)CC(C)(C)N1	2928	.	-18	.	.	.	-1
CNc1nc(Sc2ccc(C)cc2)cc(C(F)(F)F)n1	4460	4.4	-8	2	5	28	-6
CC(C)(C)c1cc(C(=O)O)n(Cc2ccc(Cl)cc2Cl)n1	4654	12	-13	9	14	2	-11
CCCCOc1ccc(C(=O)OCC(=O)N2CCCCCC2)cc1	3564	5.0	-6	10	-13	3	.
COc1cccc(/C=C/c2n[nH]c(=O)c(C#N)c2C)c1	5982	2.0	-8	-3	2	-1	-11
COc1ccc(Cc2nc3ccc(C(=O)NCC4COCCO4)cc3o2)cc1OC (centres undefined)	4017	2.0	-22	6	7	12	-2
COC(=O)c1ccc(NC(=O)CSc2nc(=O)n3cccc(C)c3n2)cc1	.	-7.3	-18	-1	-5	5	4
Cc1ccc(N(CC(=O)N2CCCC2)S(C)(=O)=O)cc1C	3771	1.3	-23	3	15	13	3
Cc1cccc(NC(=O)N2CCN(Cc3ccccc3)CC2)c1	5621	4.5	-48	9	3	3	4
Cc1cc(C)nc(NS(=O)(=O)c2ccc(NC(=O)C3COc4ccccc4O3)cc2)n1 (centres undefined)	4778	-1.2	-10	1	2	5	-4
O=CN1CCN(C(=O)c2ccc(-c3nc4ccccc4s3)s2)CC1	3245	.	-28	.	.	.	9
COc1ccc(-c2csc3nc(-c4ccccc4F)oc(=O)c23)cc1	4142	0.7	-15	-1	12	6	-7
COc1ccccc1NC(=O)NC1(C(=O)N2CCOCC2)CCCCC1	4398	2.2	-27	-5	-5	11	4
COc1ccc(NC(=O)c2ccccc2NS(=O)(=O)c2ccc(CNC(C)=O)cc2)c(OC)c1	3167	5.1	-20	9	15	-2	1
COCc1nnc(NC(=O)c2ccc(S(=O)(=O)N3CCCC3)cc2)o1	6621	5.8	-7	0	-9	5	3
O=C(Nc1ccc(CN2CCOCC2)cc1)c1cc(Cl)ccc1Cl	3915	-1.0	-22	7	2	8	8
NC(=O)NN=C/C=C/c1ccccc1	.	2.7	.	8	-6	-4	.
O=C1C=C(N2CCOCC2)C2(CCCCC2)O1	4196	2.7	-39	23	15	2	1
Cc1ccc2c(c1)N(CCC(=O)NCc1cccnc1)C(=O)CO2	9664	0.1	-34	-2	4	-10	-3
Cc1c(Cl)cccc1NC(=O)CSc1nnc(C)n1CC1CCCO1 (centres undefined)	3020	2.4	-14	-5	15	2	4
CC(OC(=O)Cc1c[nH]c2ccccc12)C(=O)NC1(C#N)CCCCC1 (centres undefined)	4424	0.9	-4	-17	12	4	-1
O=C(Nc1ccccc1)c1ccccc1NC(=O)[C@H]1CCCC[C@H]1C(=O)O	3906	6.7	-12	4	17	0	-15
O=C(Nc1cccnc1Cl)C1=NN(c2ccccc2)C(=O)CC1	4030	7.4	-26	4	5	8	2
O=C(NC1CCS(=O)(=O)C1)C12CC3CC(CC(C3)C1)C2 (centres undefined)	13089	4.8	-14	-2	1	0	6
O=C(CSc1nc(-c2ccc(F)cc2)cs1)Nc1ccccn1	2048	1.9	-5	-18	11	-2	-3
Cc1cccc(/C=N\Nc2cn[nH]c(=O)c2Cl)c1	17627*	.	-7	.	.	.	17
CN(C)S(=O)(=O)N1CCCC(C(=O)c2ccc(C(F)(F)F)cc2)C1 (centres undefined)	3234	3.3	-9	6	11	3	-3
O=C(CC1(O)C(=O)Nc2ccc(Br)cc21)c1ccc2c(c1)OCO2 (centres undefined)	5344	1.1	-17	8	6	-9	-24

(further entries)
structure	Bead autofluor	Sa RN4220 lethal	PrP UTR inh	Mtb hypoxia inh growth	Mtb hypoxia inh	Sa ugtP lethal	BJeLR lethal
OC(c1ccccc1)(C1CCCCC1)C(CN1CCOCC1)c1ccccc1 (centres undefined)	3355	0.7	.	1	7	21	6
O=C(C(=NO)c1ccccc1)c1ccccc1	.	14	.	1	7	2	.
O=C1OC(c2ccccc2)/C(=C(/O)c2ccccc2)C1=O (centres undefined)	2411	.	-32	.	.	.	-2
O=C(CSc1nnc(-c2ccccc2Cl)o1)N1CCCC1	3753	1.3	-42	-4	17	5	-3
O=C(N/N=C/C1CC=CCC1)c1cc(Br)ccc1O (centres undefined)	2391	.	1	.	.	.	-11
O=C(CSc1nc2ccc([N+](=O)[O-])cc2[nH]1)NC1CCCC1	2114	4.6	-20	9	3	2	17
COc1ccc(C(=O)COC(=O)/C=C/c2ccccc2)cc1	5508	6.5	1	2	-3	0	5
CCc1ccccc1NC(=S)N=Nc1c(O)n(C)c2ccc(S(=O)(=O)N3CCOCC3)cc12	2137	4.7	-32	7	7	-15	23
COc1ccc(CCNS(=O)(=O)c2c(C)nc3scc(C)n3c2=O)cc1OC	4477	0.2	-4	-6	15	-2	-3
CC(NC(=O)c1cc(-c2ccc3c(c2)OCO3)nc2ccccc12)C(C)(C)C (centres undefined)	21612*	4.0	-27	0	-4	9	18
CN(C(=O)c1cc2c(s1)-c1ccccc1S(=O)(=O)C2)c1ccccc1F	4621	7.2	-3	9	5	13	4
CCC(=O)N1CCN=C1SCc1ccc(Cl)cc1	3547	-4.5	-11	.	.	12	7
CC1=CC2=NC(=O)CC(C)(C(=O)N(CC(=O)NC(C)(C)C)Cc3ccccc3)N2C=C1 (centres undefined)	4811	3.3	7	2	5	15	2
Cc1c(C(=O)NN)[nH]c2ccc([N+](=O)[O-])cc12	5860	-5.6	.	5	12	-5	2
Cc1ccc(-n2nnnc2SCC(=O)Nc2ccccc2N2CCCCC2)cc1C	3872	-11	-44	9	20	-11	8
c1cncc(-c2nn3cnnc3s2)c1	3905	-1.5	-19	-4	5	-2	2
CCOCCn1c(SCCc2ccccc2)nc2c1c(=O)[nH]c(=O)n2C	5780	-3.7	-11	9	4	1	7
COc1ccccc1NC(=O)C(C(C)C)N1C(=O)c2ccccc2C1=O (centres undefined)	4114	-1.3	-36	2	9	15	6
CCC(C)N=C1SCC(C)(/C=N/O)S1 (centres undefined)	3694	.	-12	.	.	.	-2
CC(CCN1CCCCc2nc(C)c(C)cc21)=NOC(C)c1cn(C(CO)Cc2ccccc2)nn1 (centres undefined)	.	6.2	.	9	9	-4	.
Cc1cccc(SCc2noc(C(=O)NCC3CCCO3)c2C(=O)O)c1 (centres undefined)	3989	3.0	-28	10	5	2	8
Cc1ccc(C(=O)Nc2ccc(C(=O)O)cc2)cc1S(=O)(=O)Nc1cccc([N+](=O)[O-])c1	2219	1.2	-23	-5	-5	7	-5
Cc1ccc(C(=O)N2CC(C)OC(C)C2)cc1[N+](=O)[O-] (centres undefined)	2023	3.0	-5	15	6	4	-5
O=C(CSc1nnc(CNC(=O)c2ccc(F)cc2)o1)NCc1ccccc1Cl	5206	-2.6	-3	2	5	4	0

For convenience, part of the list above.
structure	Bead autofluor	Sa RN4220 lethal	PrP UTR inh	Mtb hypoxia inh growth	Mtb hypoxia inh	Sa ugtP lethal	BJeLR lethal
Cc1ccc(C(=O)N2CC(C)OC(C)C2)cc1[N+](=O)[O-] (centres undefined)	2023	3.0	-5	15	6	4	-5
O=C(CSc1nnc(CNC(=O)c2ccc(F)cc2)o1)NCc1ccccc1Cl	5206	-2.6	-3	2	5	4	0

The results go on:
structure	Bead autofluor	Sa RN4220 lethal	PrP UTR inh	Mtb hypoxia inh growth	Mtb hypoxia inh	Sa ugtP lethal	BJeLR lethal
COC(C(=O)N/N=C(\C)CC(=O)Nc1ccc(N(C)C)cc1)c1ccccc1 (centres undefined)	2209	.	-23	.	.	.	-3
C=CCC1Cc2c(cccc2[N+](=O)[O-])C(CC=C)N1 (centres undefined)	3848	1.9	-10	-6	10	7	1
O=C(Cn1cnc2sc3c(c2c1=O)CCCC3)NCC(=O)Nc1c(F)cc(F)cc1Br	6591	0.6	-6	10	5	2	0
COc1ccccc1C(c1nnnn1C1CCCC1)N1CCN2CCCC2C1 (centres undefined)	11949	-2.0	-4	3	-1	-1	7

Screening results as filed in PubChem.

The order is random; 4% or so of the library scored in one or more.
